PV pol inh – inhibitors of poliovirus RNA polymerase binding and polymerization. AID 588519. poliovirus polymerase elongation, fluorescence polarization; stronger effect = lower value. P03300. hit rate 0.66% among 150,000. % elongation, % (compound at 16.7 µg/mL); in the data active = % elongation below about 90%; also: some results filed as inactive read as strong as hits
Target sequence (P03300 1749-2209 limits assumed): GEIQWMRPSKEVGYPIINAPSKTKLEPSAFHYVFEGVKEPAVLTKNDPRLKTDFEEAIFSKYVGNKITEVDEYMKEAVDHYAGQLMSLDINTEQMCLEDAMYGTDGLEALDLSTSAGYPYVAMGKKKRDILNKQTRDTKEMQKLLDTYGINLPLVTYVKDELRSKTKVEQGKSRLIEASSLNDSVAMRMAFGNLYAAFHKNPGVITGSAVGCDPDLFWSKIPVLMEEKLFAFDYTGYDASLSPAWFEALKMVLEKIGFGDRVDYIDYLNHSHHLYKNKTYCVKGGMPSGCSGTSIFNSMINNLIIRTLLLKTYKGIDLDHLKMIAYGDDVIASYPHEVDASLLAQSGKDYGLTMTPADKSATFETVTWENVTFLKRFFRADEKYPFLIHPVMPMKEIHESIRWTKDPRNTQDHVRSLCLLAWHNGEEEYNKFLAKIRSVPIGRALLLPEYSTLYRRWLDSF
Mtb MenB inh – inhibitors of Mycobacterium tuberculosis MenB enzyme | P9WNP5 | MenB enzyme assay, absorbance read-out; some hits fall short of the stated cut | inhibition, %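 (about 12 µg/mL by stock and volumes)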 | hit rate 0.43% among 100,000;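 active = mean of two replicates above 30%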;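 also: 0% = no compound and 100% = wells with inactive enzyme; the first replicate is given; strong numbers were not always called active; inactives centre near -10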
Target sequence (P9WNP5 whole entry, looked up): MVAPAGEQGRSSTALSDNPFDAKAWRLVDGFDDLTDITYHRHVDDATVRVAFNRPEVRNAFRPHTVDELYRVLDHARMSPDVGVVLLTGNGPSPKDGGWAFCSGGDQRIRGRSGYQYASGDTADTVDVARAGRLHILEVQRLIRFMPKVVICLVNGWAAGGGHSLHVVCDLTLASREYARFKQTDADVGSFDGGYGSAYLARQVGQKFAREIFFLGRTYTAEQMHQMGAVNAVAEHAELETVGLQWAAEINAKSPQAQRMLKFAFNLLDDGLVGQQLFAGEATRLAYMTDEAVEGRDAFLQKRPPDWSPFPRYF
Mtb MbtI inh – inhibitors of Mycobacterium tuberculosis siderophore enzyme MbtI; inhibition, %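 (about 17 µg/mL by stock and volumes)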; P9WFX0; purified MbtI enzyme, fluorescence intensity read-out; hit rate 0.89% among 100,000;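 active = above 50% in both replicates, above 80% if mildly self-fluorescent; inactive = the rest, strongly fluorescent compounds included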;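 also: 0% = mean of negative and 100% = mean of positive controls; one replicate is shown; some compounds called inactive have numbers as strong as hits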
PV pol inh intensity – further read-out of PV pol inh, marked with its call; % elongation; measured here: total intensity read-out; formula for this scale not given here;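 total fluorescence in place of polarization; lower means less elongation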
Starred values were filed as active, the others as inactive; x = not tested or not shown; & = joins results of further samples.

SMILES	PV pol inh	PV pol inh intensity	Mtb MenB inh	Mtb MbtI inh
O=C(c1cccs1)n1cc2c(n1)-c1cc(Cl)ccc1SC2	103	102	15	25
CCN1CCCC1CNS(=O)(=O)c1ccc(-c2cc(C(F)(F)F)no2)s1 (stereo not drawn)	104	105	-23	-6
COc1ccc(CN(C(=O)CCN2C(=O)c3ccccc3S2(=O)=O)c2ccccc2O)cc1	103	103	-11	-1
CCN1/C(=C2/SC(=S)N(N)C2=O)C=Cc2cc(C)ccc21	102	95	-20	-5
CC(C)(C)N(Cc1ccccc1)C(=O)CSc1nnc(-c2ccccc2)o1	100	87	-17	10
O=C(C[n+]1cccc(/C=N/O)c1)N1CCOCC1	101	101	7	2
O=C(Nc1ccccc1C(=O)N1CCOCC1)C1COc2ccccc2O1 (stereo not drawn)	103	105	-32	-8
Cc1occc1C(=O)N/N=C/c1ccc(C(=O)O)cc1	106	101	-31	3
C=CCNC(=O)/C=C/c1ccc(Cl)c(Cl)c1	101	103	8	-10
CC(C)N1CC=C2C(C1)C(c1ccccc1)C(C#N)=C(N)C2(C#N)C#N (stereo not drawn)	82	213	-46	x
CCC(CC)C(=O)N1CCc2ccccc21	100	103	-24	-13
CCN(CC)c1ccc(NC(=O)c2cc(=O)c3ccccc3o2)cc1	105	98	-43	4
COC(=O)COc1ccc2c(=O)c(-c3csc(C)n3)coc2c1	104	103	12	-10
Cc1nc(N2CCCC2)sc1C(=O)c1oc2ccccc2c1C	48	237	-31	-6
CCOC(=O)C(O)(c1ccc2nc(N)sc2c1)C(F)(F)F (stereo not drawn)	101	99	-1	6
CC(C)NC(=O)C[n+]1csc2ccccc21	104	108	-17	x
Clc1ccc(C2=Nc3cccc4cccc(c34)N2)cc1	100	97	-52	-3
COc1cccc(C(=O)N2CCCC(C)C2)c1 (stereo not drawn)	102	102	6	1
O=c1[nH]c(O)c(C=NCc2cccs2)c(=O)[nH]1	100	102	-5	21
OCC1CC(O)C(O)C(Oc2ccc3ccccc3c2)O1 (stereo not drawn)	100	102	-40	-7
Cc1ccc(-n2ncc3c(NCc4ccco4)ncnc32)cc1	100	101	-29	23
CCOc1ccc(NC(=O)COC(=O)Cn2cnnn2)cc1OCC	97	99	-8	11
Cc1ccc(C(=O)N(C)c2ccccc2)cc1Cl	99	101	-12	0
CN(C)NS(=O)(=O)C1CCS(=O)(=O)C1 (stereo not drawn)	103	103	-4	-4
O=C(O)c1ccc(N2CCCc3ccccc32)s1	100	104	12	20

Overlap with the part before: 2 entries, followed by the next part.
SMILES	PV pol inh	PV pol inh intensity	Mtb MenB inh	Mtb MbtI inh
CN(C)NS(=O)(=O)C1CCS(=O)(=O)C1 (stereo not drawn)	103	103	-4	-4
O=C(O)c1ccc(N2CCCc3ccccc32)s1	100	104	12	20
NC(=O)N/N=C1\CCCc2ccccc21	102	108	12	5
Cc1ccccc1C(=O)NC#N	107	104	7	x
CCC(=O)Oc1ccc(Br)cc1/C=C1\Sc2ccccc2C1=O	103	108	9	-2
O=C(NCc1ccccc1)/C(=N\O)c1ccccc1	101	100	22	-1
CCCCCn1c(=O)[nH]c2cc(C(=O)Nc3cc(OC)c(OC)c(OC)c3)ccc2c1=O	100	102	-27	-13
O=C(Cc1ccccc1)N/N=C/c1ccccc1F	104	103	-56	7
CC(C)(C)N1C(=O)c2ccc(C(=O)Nc3nccs3)cc2C1=O	105	106	-4	x
CN(CCc1ccc(Cl)c(Cl)c1)CC(O)COc1ccc(NS(C)(=O)=O)cc1 (stereo not drawn)	104&100	102&101	-2	-7
O=C(O)c1ccccc1N(Cc1ccccc1)C(=O)c1ccccc1O	102	96	7	-4
Cc1ccsc1C(=O)OC(C(=O)c1c[nH]c2ccccc12)c1ccccc1 (stereo not drawn)	102	97	x	-8
O=C1c2cccnc2C(=O)N1Cc1ccc(S(=O)(=O)NC2CCCC2)cc1	102	104	-8	-12
S=c1nc2[nH]c3cc4c(cc3c2n[nH]1)OCCO4	98	90	-10	19
COCCSc1nnc(NC(=O)C2CC(=O)N(C(C)(C)C)C2)s1 (stereo not drawn)	103	103	-38	1
CC(=O)Nc1ccc(NC(=O)CNC(=O)COc2ccccc2)cc1	96	102	-28	1
Cc1ccccc1-c1noc(-c2ccc(OC(=O)c3ccccc3)cc2)n1	101	103	-7	-31
O=C1NC(Nc2ccccn2)(C(F)(F)F)C(=O)N1c1ccc(F)cc1 (stereo not drawn)	101	101	6	-17
CNC(=O)N(C1=NCC(C)(C)S1)c1ccc(F)c(Cl)c1	102	103	-27	-8
CCOC(=O)c1cc(NC(=O)/C=C2/N(C)c3ccccc3C2(C)C)c(C)nc1C	100	105	7	4
Nc1nc(OC(C(F)(F)F)C(F)(F)F)nc(OC(C(F)(F)F)C(F)(F)F)n1	102	102	-54	-17
C=CCN1C(=O)C(Cc2ccc(OC)cc2)S/C1=N/N=C/c1ccco1 (stereo not drawn)	103	101	5	-6
COc1cccc(N2C(=O)CN=C2Nc2nc(C)cc(C)n2)c1	107	98	-8	x
CC(=O)Nc1ccccc1OC(=O)N1CCOCC1	104	103	-11	-23
Cc1cc(OCC[N+]2(C)CCCCC2)nc2ccccc12	101	96	-2	-14
CCN1CCc2nc3ccccc3c(C(=O)Nc3ccc(F)cc3)c2C1	105	106	-23	11
Cc1ccc(O)c2c1NCCC2	97	103	-37	-11
Next section:
SMILES	PV pol inh	PV pol inh intensity	Mtb MenB inh	Mtb MbtI inh
O=C(c1cc(-c2ccc(F)cc2)on1)N1CCCc2ccccc21	102	103	-1	1
CCCOC(=O)c1sc2nc3c(c(-c4cccs4)c2c1N)CCC3	100	103	-29	-24
O=C(c1ccc(Cl)cc1)N(c1ccccn1)c1ccccn1	101	95	-29	9
S=C(NCc1ccco1)N1CCC2(CC1)OCCO2	101	99	-28	18
Cc1ccc(NC(=O)CSCc2c(C)noc2C)cc1C	105	110	2	9
COC(=O)c1cc(Cl)nc2ccccc12	100	101	0	52
Cc1ccccc1OCC(=O)N(Cc1ccco1)Cc1ccco1	101	102	-7	11
N#Cc1ccc(CNC(=O)Nc2ccccc2)cc1	105	99	4	8
CCSc1nc(O)c(C(C)CC)c(=O)[nH]1 (stereo not drawn)	105	106	-29	-9
Cn1nnnc1SCC(=O)OC1CCCCC1	104	102	-42	-7
O=C1c2ccccc2C(=O)N1Cc1ccc2[nH]c3c(c2c1)CCCC3	104	104	9	-3
Cc1c(S(=O)(=O)c2ccc(Cl)cc2)csc1C(=O)N(C)c1nnc(C(F)(F)F)s1	100	103	5	-2
O=C(COc1ccc2oc3c(c2c1)CCCC3)Nc1cccnc1	103	102	x	-6
COc1ccc(C2NC(=O)NC3=C2C(=O)CC(C)(C)C3)cc1OC (stereo not drawn)	106	110	2	-3
CCOc1ccc(NC(=O)CN2C(=O)C(CC)SC(CC)C2=O)cc1 (stereo not drawn)	102	105	-13	-4
CCOC(=O)/C(C#N)=C1\CC2CCC1(C)C2(C)C (stereo not drawn)	98	99	21	84*
Cc1cc2nn(CN3CCOCC3)c(=S)n2c2ccccc12	96	95	-15	54
Cc1ccccc1Nc1nc(N)nc(COc2ccc(F)c(Cl)c2)n1	105	107	-27	-8
COc1ccccc1/C(N)=N/O	103	107	17	-7
FC(F)Oc1ccccc1C=NCc1cn2ccccc2n1	101	105	-6	-103
COC(=O)N(c1ccccc1)P1(=S)OCCO1	96	100	37*	102*
CCOC(=O)c1cc(-c2ccccc2)n(-c2ccccc2C)n1	102	103	-15	-9
CCOC(=O)c1sc(N)c(C#N)c1COC(=O)CSc1nnc(-c2ccco2)o1	x	x	-30	22
N#CCn1c(COC(=O)Cc2ccc3c(c2)OCCO3)nc2ccccc2c1=O	112	106	-23	-4
N#CC1=C(N)C(C#N)(C#N)C2(C(=O)N(Cc3ccccc3)c3ccccc32)C2CCCC=C12 (stereo not drawn)	107	113	-13	x

Look-ups from the entries so far:
Entry for `CCOc1ccc(NC(=O)CN2C(=O)C(CC)SC(CC)C2=O)cc1` (stereo not drawn) in Mtb MbtI inh: -4
Entry for `CCOC(=O)c1sc(N)c(C#N)c1COC(=O)CSc1nnc(-c2ccco2)o1` in Mtb MbtI inh: 22
Entry for `CCOC(=O)/C(C#N)=C1\CC2CCC1(C)C2(C)C` (stereo not drawn) in Mtb MenB inh: 21
Entry for `O=C(c1ccc(Cl)cc1)N(c1ccccn1)c1ccccn1` in PV pol inh: 101
Entry for `COc1ccc(C2NC(=O)NC3=C2C(=O)CC(C)(C)C3)cc1OC` (stereo not drawn) in PV pol inh: 106

More results follow:
SMILES	PV pol inh	PV pol inh intensity	Mtb MenB inh	Mtb MbtI inh
CC(O)c1cc(-c2ccc(Cl)cc2Cl)no1 (stereo not drawn)	106	104	-5	-4
CSc1nnc(SC)n1CCNC(=O)Nc1cccc(Cl)c1	106	107	-4	-3
CCOc1ccc(-n2c(SCc3ccccc3)nnc2-c2cccnc2)cc1	101	103	-24	x
O=C(c1cc(-c2cccs2)on1)N1CCCc2ccccc21	103	103	0	1
CCOC(=O)C1CCN(C(=O)COC(=O)/C=C/c2ccccc2)CC1	101	105	-17	-7
Cc1ccc(NS(=O)(=O)c2ccc3c(c2)oc(=O)n3C(=O)Oc2ccccc2)cc1	100	102	-16	-1
CCOc1ccc(S(=O)(=O)N2CCC(C(=O)N/N=C/c3ccc(-c4ccc(F)cc4)o3)CC2)cc1	99	102	-1	-2
COc1ccccc1N1C(=O)NC(=O)/C(=C\C=C\c2ccco2)C1=O	99	104	-183	73*
Cc1noc(C)c1COC(=O)/C=C/c1cn(Cc2ccccc2)nc1-c1cccs1	100	107	-36	97
Cc1ccc(CNS(=O)(=O)c2c(C(=O)N3CCCC3)c(C)n(C)c2C)cc1	102	102	-22	-10
COc1ccc(CNC(=S)N2CCCC(C(F)(F)F)C2)cc1 (stereo not drawn)	99	103	-58	22
Cc1cc(Sc2nnc3c(n2)[nH]c2ccccc23)n2c(nc3ccccc32)c1C#N	101	106	-31	-6
CC(C)(C)OC(=O)N1CCC(c2nc3c(nnn3Cc3ccccc3Cl)c(=O)[nH]2)CC1	104	97	-17	-10
CN1C=C(C(N)=O)C=CC1=C1C(=O)c2ccccc2C1=O	102	105	-15	1
CCOC(=O)c1nc(NC(C)C)c2ccccc2n1	102	98	-37	18
COc1ccc(Nc2ncnc3c2nnn3Cc2ccccc2Cl)c(OC)c1	100	106	12	-6
CCC(Nc1ccc(Br)cc1)C(=O)N/N=C/c1cccnc1 (stereo not drawn)	102	99	-25	12
CC(NC(=O)C1COc2ccccc2O1)C(=O)O (stereo not drawn)	103	98	-44	-10
C=CCn1c(COc2ccccc2F)nnc1SC1CCOC1=O (stereo not drawn)	117	122	-20	-5
O=C(O)c1cn(C2CC2)c2cc(N3CCN(C(=S)S)CC3)c(F)cc2c1=O	102	109	-77	x
C=CCN1C(=O)C2(C(C#N)=C(N)OC(C)=C2C(=O)OC)c2ccccc21 (stereo not drawn)	104	102	-10	1
O=C(O)c1ccc(-n2cncn2)cc1	98	109	-18	-1
CC(c1ccccc1)N1C(=O)NC(C(F)(F)F)(C(F)(F)F)C2=C1CC(C)(C)CC2=O (stereo not drawn)	100	103	-1	3
COc1ccc(C(=O)COC(=O)C2CCC(=O)N2)cc1 (stereo not drawn)	107	102	-16	-14
CC(Sc1ccc(Br)cc1)C(N)=O (stereo not drawn)	105	105	-21	-10
Going on with the list:
SMILES	PV pol inh	PV pol inh intensity	Mtb MenB inh	Mtb MbtI inh
NC(=O)c1ccccc1O	104	101	-3	-315
Cc1ncc(CC(=O)n2cc(C(=O)c3cc(F)ccc3O)cn2)s1	96	103	-34	47
CCOc1ccc(C(CNC(=O)C(CC)c2ccccc2)N2CCOCC2)cc1OC (stereo not drawn)	104	108	-24	-3
O=C(COC(=O)/C=C/c1ccc(Br)o1)Nc1ccc2[nH]c(=O)[nH]c2c1	99	110	-18	-4
CC(C)N(Cc1nc(-c2ccccc2)no1)C(=O)C(C)(C)C	102	107	-11	-11
O=C(c1cccnc1)n1nc(NCc2ccccc2)nc1NCc1ccccc1	101	102	-6	11
Cc1cc(C)cc(-c2nnc(SC(C)c3nc4ccccc4c(=O)[nH]3)o2)c1 (stereo not drawn)	107	115	-28	7
COc1ccc(-c2noc(COC(=O)/C=C/c3ccc(OC(F)F)cc3)n2)c(OC)c1	104	99	-9	2
CC1=C(C(=O)Nc2ccccc2)C(CC(C)C)n2nc(SCc3cccc(C)c3)nc2N1 (stereo not drawn)	103	107	-11	8
CC(C(=O)NC1CCCC1)N1CCN(c2ccccn2)CC1 (stereo not drawn)	100	102	10	10
CC1=C(C(=O)Nc2ccccc2F)C(c2ccsc2)C2=C(CC(C)(C)CC2=O)N1 (stereo not drawn)	104	102	-6	-30
Clc1cc2c(cc1C=Nc1ccc(N3CCOCC3)cc1)OCO2	101	101	-3	-23
Cc1ccc(OCCn2cccc2/C=C2\C(=N)N3N=C(N4CCCC4)SC3=NC2=O)c(C)c1	100	102	-15	-1
CC1CCN(c2cc(N3CCC4(CC3)OCCO4)c3noc4c3c2C(=O)c2ccccc2-4)CC1	112	161	-9	0

Record cards (already shown). Screens in order: PV pol inh | PV pol inh intensity | Mtb MenB inh | Mtb MbtI inh
Record of Cc1ccc(C(=O)N(C)c2ccccc2)cc1Cl → 99 | 101 | -12 | 0
Record of O=C(c1cc(-c2ccc(F)cc2)on1)N1CCCc2ccccc21 → 102 | 103 | -1 | 1
Record of Cc1ccsc1C(=O)OC(C(=O)c1c[nH]c2ccccc12)c1ccccc1 (stereo not drawn) → 102 | 97 | x | -8
Record of CCCCCn1c(=O)[nH]c2cc(C(=O)Nc3cc(OC)c(OC)c(OC)c3)ccc2c1=O → 100 | 102 | -27 | -13
Record of CCSc1nc(O)c(C(C)CC)c(=O)[nH]1 (stereo not drawn) → 105 | 106 | -29 | -9

Compound activity (PubChem BioAssay)
